# Assay outcomes deposited in PubChem by National Center for Advancing Translational Sciences (NCATS).
# Lassa entry inh – Lassa virus entry inhibition; Lassa virus pseudotype entry inhibition, cell reporter; control for the full effect not named in the record; Potency, µM (titrated, usually from 37.9 µM), for inactives: at the highest dose activity change, negative = inhibition, hits mostly inhibitors; hit rate 1.2% among 300,000; active means well fitted inhibition curve with a large enough effect; inconclusive means small, poorly fitted or top-dose-only effect, or effect the other way; inactive means flat fitted curve, though single readings scatter; tested in HEK293 cells; note: % is set by controls: 0 for no effect and ±100 for the full control effect; nearly all actives have a fitted effect of over 50% in size; luciferase read-out
# StopGo reporter – FMDV 2A StopGo reporter, luciferase signal. human cells with a luciferase reporter of 2A StopGo recoding; control for the full effect not named in the record. Potency, µM (doses to about 57.9 µM), for inactives: top-dose signal change, negative = less light. hit rate 1.2% among 410,000. AID 1159524; active = well fitted falling curve with a large enough effect; inconclusive = small, poorly fitted or top-dose-only effect; inactive = no such curve, though single readings can be large or run the other way; tested in HEK293T cells; note: % is set by controls: 0 for no effect and ±100 for the full control effect; nearly all actives have a fitted effect of over 45% in size; luciferase light after 4 h
# NS1 function inh – influenza NS1 inhibition; S. cerevisiae slowed by influenza A NS1, growth recovery by OD600; Potency, µM (titrated, usually from 46.1 µM), without a hit: at the top dose activity, positive = more growth; hit rate 0.4% among 270,000; note: actives are rising curves; nearly all actives have a fitted effect of over 50% in size
#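 S. cerevisiae expressing influenza A NS1, grown in glucose, washed, then diluted 1:100 into pH 6.0 -URA galactose medium with 23 nl compound. Growth recovery read as OD600; NS1-free strain serves as control.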
# SARS PLP yeast – SARS-CoV PLP inhibition in yeast | S. cerevisiae expressing SARS-CoV PLpro, growth rescue; control for the full effect not named in the record | Potency, µM (doses to about 32.9 µM), without a hit: at the top dose activity, positive = growth rescue | hit rate 0.19% among 330,000 | AID 485353; note: 0% is about no effect; nearly all actives have a fitted effect of over 55% in size; growth read by luminescence after 48 h
# * marks the source's active call; other numbers are inactive results; ? = inconclusive; nt = no result given; [ ] = remark or other dose. Unless noted, calls come from the whole dose curve; as a rule, active means well fitted rising curve with a large enough effect; inconclusive means small, poorly fitted or top-dose-only effect; inactive means no such curve, though single readings can be large or run the other way. Potency is the fitted concentration of half-maximal effect. Only part of the results is shown (hit frequency here may not be typical).
# Screens in order – NS1 function inh | Lassa entry inh | StopGo reporter | SARS PLP yeast
CCn1c2ccccc2c2cc(NC(=O)c3ccccc3-c3ccccc3C(=O)O)ccc21
→ ? | nt | -15.4% | 2.6%
COc1cccc(/C=C2\CCc3ccccc3C2=O)c1
→ -57.8% | nt | -65.8% | -5.2%
C=CCOc1ccc(S(C)(=O)=O)cc1
→ -3.4% | nt | 4.1% | -1.0%
NC(=O)CN1C(=O)C(=O)N(Cc2ccc(Cl)cc2)C1=O
→ 2.0% | nt | -16.1% | -1.3%
Nc1ccccc1C#CC(=O)c1ccccc1
→ -68.2% | nt | ? | -11.9%
O=c1[nH]cnc2c1ncn2Cc1ccc([N+](=O)[O-])cc1
→ -0.8% | nt | -13.4% | 1.6%
O=C(Nc1ccc(Nc2ccccc2)cc1)c1ccc(F)cc1
→ -37.0% | nt | -2.5% | -1.8%
CCOC(=O)CNC(=O)Cn1cnc2c(nnn2-c2ccc(OC)cc2)c1=O
→ -5.5% | nt | -14.0% | 4.7%
CNC(=O)Oc1ccc(N(C)C)cc1C(C)C
→ -30.0% | nt | -16.0% | 2.1%
Cc1cc2nc3s/c(=C/c4ccc(-c5ccccc5C(=O)O)o4)c(=O)n3c2cc1C
→ 3.5% | nt | 0.0% | 0.5%
Nc1ccccc1Sc1cc(Cl)nnc1Cl
→ -0.8% | nt | -14.6% | -2.3%
O=C(Nc1ccc(Nc2ccncc2)cc1)c1ccc([N+](=O)[O-])cc1
→ 2.6% | nt | ? | 1.0%
CCCC[n+]1c2ccccc2cc2ccccc21
→ -57.6% | nt | 28.2µM* | -11.1%
Cc1ccc2c(c1)sc(-c1ccc(N(C)C)cc1)[n+]2C
→ -71.8% | nt | ? | -13.3%
COc1ccc(S(=O)(=O)Nc2noc3ccccc23)cc1
→ -0.1% | nt | 39.5%[activator] | -0.2%
OCn1c2ccccc2c2ccccc21
→ ? | nt | 0.7% | -0.5%
CC(=O)Nc1ccc(OCCOc2ccc([N+](=O)[O-])cc2)cc1
→ -6.5% | nt | -14.3% | 4.2%
CSc1nc(N)c(C(=O)NC2CCCCC2)s1
→ -4.6% | nt | 38.8%[activator] | 0.2%
Cc1ccc2c(c1)c(/C=C/c1cc[n+](C)cc1)c(C)n2C
→ -2.2% | nt | ? | 0.1%
O=C1NC(=S)S/C1=C\c1ccc2ccccc2c1
→ -2.1% | nt | 25.3% | -3.5%
O=C1Nc2ccccc2C1=Nc1cccc([N+](=O)[O-])c1
→ -4.4% | nt | -2.5% | 17.4%
CC(C)c1nc2c(c(=O)n(C)c(=O)n2C)n1C
→ -5.8% | nt | -16.8% | 0.6%
O=[N+]([O-])c1ccc(Nc2ccccc2)c2nonc12
→ -46.7% | nt | ? | -4.3%
CCCc1nc2ccccc2c(=O)n1CC(=O)c1ccc(F)cc1
→ -2.4% | nt | -17.8% | -1.1%
CCNc1nn2ccccc2c1/C=C(\C#N)C(=O)OCC
→ -9.1% | nt | -16.5% | -3.7%
O=C1CCCc2cc3c(cc21)CC1(C3)Cc2cc3c(cc2C1)C(=O)CCC3
→ -2.7% | nt | ? | 0.9%
CCCCOc1ccc(OC(=O)Nc2cc(Cl)ccc2OC)cc1
→ ? | nt | 30.2%[activator] | -3.6%
Cc1ccn2cc(-c3ccc(O)c(O)c3)nc2c1
→ 3.0% | nt | -72.4% | -0.4%
C[C@]12CCC(O)CC1CCC1C2CC[C@]2(C)C(c3cc(C(F)(F)F)n[nH]3)CCC12 (stereo partly drawn)
→ 9.0% | nt | ? | -6.7%
Nc1cccc(C(=O)NCCNC(=O)c2cccc(N)c2)c1
→ 7.2% | nt | -16.0% | 0.4%
C=CCNc1nc(N)c([N+](=O)[O-])c(Nc2cccc(Cl)c2)n1
→ -0.6% | nt | -10.6% | 13.6%
Cc1ccc(-c2nc3c(Cl)cc(Cl)cc3c(=O)n2O)cc1
→ -30.3% | nt | -14.8% | -8.1%
Cc1c(C)n(CCc2ccccc2)c2ncnc(NCCO)c12
→ -6.3% | nt | 45.4%[activator] | 0.1%
Fc1cccc(NCCc2c[nH]c3ccccc23)n1
→ -7.1% | nt | 37.7%[activator] | -2.6%
CCOC(=O)c1csc(N/N=C2\CCCc3ccccc32)n1
→ 8.5% | nt | 12.7% | -2.7%
Cc1ccc(-c2n[nH]c(=S)nc2-c2ccc(C)cc2)cc1
→ 18.5% | nt | -21.2% | 1.1%
CCCCc1c(C)[nH]c(=S)[nH]c1=O
→ -3.6% | nt | -16.6% | -1.6%
Cc1cc2nc3c(nc2cc1C)CCCC3
→ -3.8% | nt | 20.6% | 0.0%
Cc1ccc(N(Cc2cc(=O)[nH]c3ccccc23)C(=O)CCl)cc1
→ 2.5% | nt | ? | -0.4%
COc1cc(OC)c(OC)cc1CCC(C)NCCC(c1ccccc1)c1ccccc1 (stereo not drawn)
→ -1.6% | nt | -13.5% | 0.2%
CCOc1cc(/C=C2/C(=O)ON=C2C)cc(Br)c1O
→ -4.1% | nt | ? | -1.4%
O=C(Nc1ccc(F)cc1)c1cc2cc(Cl)ccc2[nH]1
→ -5.1% | nt | 34.5%[activator] | 1.6%
Cc1c(C(=N)C(C#N)C#N)c(=N)oc2c1ccc1ccccc12
→ -1.2% | nt | -4.1% | -1.2%
CCOC(=O)Cn1cnc2c(nnn2-c2cccc(OC)c2)c1=O
→ 4.5% | nt | 25.7% | -0.7%
Cc1ccc(NC(=O)Nc2ccccc2C(N)=O)cc1
→ -2.8% | nt | 49.5%[activator] | 0.4%
O=[N+]([O-])c1ccc(C2CC(c3ccccc3)=Nc3ccccc3S2)cc1 (stereo not drawn)
→ -52.5% | nt | -28.2% | -6.8%
CN1CC(C(=O)c2ccc(Cl)cc2)C(c2ccccc2)C1 (stereo not drawn)
→ 1.6% | nt | -9.6% | -0.3%
Cn1c(=N)n(CC(=O)c2ccc(Cl)c(Cl)c2)c2ccccc21
→ ? | nt | ? | -2.8%
CN(C)c1ccc(/C=N/N(CCO)C2=NS(=O)(=O)c3ccccc32)cc1
→ 1.1% | nt | -14.6% | 1.5%
CN1CCN(c2nc(N)cc(=O)[nH]2)CC1
→ 5.3% | nt | -10.0% | 0.5%

# Carrying on:
# Screens in order – NS1 function inh | Lassa entry inh | StopGo reporter | SARS PLP yeast
Cn1c(=O)c2ncn(CC(=O)O)c2n(C)c1=O
→ 3.5% | nt | 100.6%[activator] | -1.1%
CCN1C(=O)c2cccc3c(N)ccc(c23)C1=O
→ -4.3% | nt | 13.6% | 0.1%
O=C(O)C1Nc2c(C(F)(F)F)ccc(Cl)c2C2C=CCC12 (stereo not drawn)
→ 0.4% | nt | -26.0% | -1.0%
NCC12CC3CC(C1)CC(c1ccc(Br)cc1)(C3)C2
→ -9.6% | nt | ? | -5.6%
C=CCn1cccc(C(=O)Nc2ccc(C)cc2)c1=O
→ -43.4% | nt | 11.4% | -5.1%
Cc1nc(NCc2ccccc2)c2cc[nH]c2n1
→ -1.4% | nt | 35.6%[activator] | 0.3%
O=[N+]([O-])c1ccc(CCn2ccnc2)cc1
→ -0.8% | nt | -1.8% | -1.4%
COc1ccc(-c2cc(-c3ccc(C)cc3)n[nH]2)c(O)c1
→ -7.0% | nt | 42.6%[activator] | -4.9%
CSc1nc(O)c(Nc2cccc(Cl)c2)c(=O)[nH]1
→ 0.4% | nt | 6.5% | 0.2%
CN1CC(=O)Nc2ccccc2C1=O
→ -0.3% | nt | 60.5%[activator] | 0.0%
CN1CCc2ccccc2C1Cc1ccccc1NC(=O)c1sc2ccccc2c1Cl (stereo not drawn)
→ -7.1% | nt | -9.8% | -1.2%
N#CC1=C(Nc2ccccc2Cl)SC(c2ccccc2O)NC1=O (stereo not drawn)
→ ? | nt | 26.4% | -1.3%
Clc1nc2nc3n(c2nc1Cl)CCC3
→ 2.3% | nt | -15.4% | 4.8%
O=C(c1ccc(Sc2ccccc2)c([N+](=O)[O-])c1)N1CCOCC1
→ -37.3% | nt | -8.7% | 0.8%
Cn1nc(NC(=O)C(F)(F)F)c2ncc(-c3ccc(Cl)cc3)nc21
→ 0.4% | nt | 51.3%[activator] | -1.6%
Cc1ccc(C(C)C)cc1NC(=O)Nc1ccc([N+](=O)[O-])cc1
→ -118.4% | nt | ? | -11.9%
COc1cc(OC)c2c(=O)cc(-c3cccnc3)oc2c1
→ 5.1% | nt | 14.6% | -0.3%
Cc1[nH]c2ccccc2c1/C=N/NC(=O)c1ccccc1
→ 1.7% | nt | 26.1% | -0.8%
O=C(O)CCN1c2ccccc2Sc2ccccc21
→ -42.1% | nt | -3.5% | -0.7%
Cc1ccc2c(c1)/C(=C/c1ccccc1F)C(=O)N2
→ -2.6% | nt | -13.7% | -2.3%
O=C(NC(=S)Nc1cccc(F)c1)c1cccc([N+](=O)[O-])c1
→ -3.6% | nt | 18.9% | -1.3%
CCOC(=O)N1CN(C(=O)OCC)CN(C(=O)OCC)C1
→ -1.5% | nt | 3.5% | 0.4%
Cc1nc2ccccc2c(=O)n1/N=C/c1ccc(O)c(O)c1O
→ 3.0% | nt | -9.8% | -2.5%
CCN(CC)C(=O)COCc1cc(-c2ccc3c(c2)OCO3)on1
→ -2.2% | nt | 36.7%[activator] | 0.8%
Nc1ccc(NC(=O)Nc2ccc(N)cc2)cc1
→ 6.5% | nt | 25.9% | 0.2%
Cc1ccc(-c2ccc(CCC(=O)O)n2-c2ccc(C(=O)O)cc2)cc1
→ 4.8% | nt | -1.8% | 2.6%
Cc1cccc(CN2CCCN(Cc3ccc(Cl)cc3)S2(=O)=O)c1
→ -2.1% | nt | 22.5% | -4.5%
COc1cc(NC(=O)c2cccc(C)c2)ccc1NC(=O)c1cc2ccccc2o1
→ 2.5% | nt | -20.6% | -0.2%
Cc1cccc2cc3cccc(C)c3nc12
→ -1.5% | nt | -16.5% | -1.3%
COC(=O)c1c(C(=O)OC)c(-c2ccc(F)cc2)n2c1CS(=O)(=O)C2
→ 2.1% | nt | 9.3% | 1.8%
CC(=O)C(=Cc1ccc(O)cc1)C(C)=O
→ -4.6% | nt | -19.3% | -0.4%
N#C/C(=C\c1c[nH]c2ccccc12)C(N)=O
→ -7.9% | nt | 19.5% | 3.5%
CN1CCN(c2nc(N)c(Br)c(Cl)n2)CC1
→ 3.5% | nt | -11.3% | 0.8%
CCN1Cc2c(/C=C/c3ccccc3)nc3ccc(OC)cc3c2N(c2cccc(Cl)c2)C1
→ 7.1% | nt | 39.8µM* | -2.8%
C1CC2NCCC3NCCC(N1)N32 (stereo not drawn)
→ 0.5% | nt | -24.7% | -2.0%
COc1ccc(-c2nc(CSc3nc4ncccc4[nH]3)c(C)o2)cc1OC
→ nt | 28.8%[46.1 µM] | -22.1% | nt
COc1ccc(-c2cn3nc(N4CCC(C(=O)Nc5cc(Cl)ccc5OC)CC4)sc3n2)cc1
→ nt | ? | 7.2% | nt
CCOc1ccc(NS(=O)(=O)c2ccc3[nH]c4c(c3c2)CCCC4)cc1
→ nt | ? | 41.7%[activator] | nt
O=C(Cn1c(SCc2cccc(F)c2)nc2cccnc21)Nc1ccc(F)c(Cl)c1
→ nt | -0.3%[46.1 µM] | -16.7% | nt
Cc1ccc(C)c(NC(=O)C2CCN(c3ncnc4c3nc3n4CCCCC3)CC2)c1
→ nt | 17.6%[46.1 µM] | -6.5% | nt
COC(=O)c1ccccc1NC(=O)COCc1cc(-c2cccs2)on1
→ nt | 10.8%[46.1 µM] | -26.5% | nt
Cc1cccc(NC(=O)N2CCC(CN3CCc4ccccc4C3)CC2)c1C
→ nt | 11.7%[46.1 µM] | -1.2% | nt
CSc1ncc(C(=O)N2CCN(c3ccc(Cl)cc3)CC2)c(C)n1
→ nt | 6.3%[46.1 µM] | ? | nt
Cc1cc(Cl)ccc1NS(=O)(=O)c1cc2[nH]c(=O)c(=O)[nH]c2cc1C
→ nt | 2.3%[46.1 µM] | -8.2% | nt
CCOC(=O)N1CCC2(CC1)OC(=O)C(C)=C2C(=O)NCc1cccc(OC)c1
→ nt | -10.7%[46.1 µM] | -5.7% | nt
COc1ccc(NC(=O)Cn2ncc3c([nH]c4ccccc43)c2=O)cc1Cl
→ nt | -18.1%[46.1 µM] | -3.5% | nt
CCCn1c2ccccc2c2cnn(CC(=O)NCC3CCN(Cc4ccc(C)cc4)CC3)c(=O)c21
→ nt | 6.1%[46.1 µM] | ? | nt
c1ccc(N2CCN(c3ncnc4c3nc3n4CCCC3)CC2)cc1
→ nt | ? | 14.1µM* | nt
COc1cccc(NC(=O)C(Cc2ccccc2)N2Cc3ccccc3C2=O)c1 (stereo not drawn)
→ nt | 0.6%[46.1 µM] | 8.5% | nt
